ALR inh – inhibitors of human ALR sulfhydryl oxidase, primary screen, biochemical, H2O2 detection, HRP-luminol luminescence, single point; purified ALR, DTT oxidation; inhibition, % (test concentration not listed); 290,000 compounds, 3.8% hits; AID 485317, 2010;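 active means mean and each replicate at 75% or more; inconclusive means only one of the two met; inactive means neither met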;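 further: stock transfer was 7.5 nL into about 7.5 µL; 0% = neutral wells and 100% = wells with inactivated enzyme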
Target sequence (P55789 whole entry, looked up): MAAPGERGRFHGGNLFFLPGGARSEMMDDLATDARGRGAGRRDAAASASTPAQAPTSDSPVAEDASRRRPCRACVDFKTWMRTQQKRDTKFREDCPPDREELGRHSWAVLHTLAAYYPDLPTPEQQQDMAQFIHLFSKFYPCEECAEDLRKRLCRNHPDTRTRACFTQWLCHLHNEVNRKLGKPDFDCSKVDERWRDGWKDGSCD
rRNA inh HTS – reduced GFP signal of wild-type E. coli, primary screen, bacterial rRNA inhibitor project, GFP/RFP fluorescence, OD600, single point. E. coli WT GFP vs humanized-ribosome RFP mutants, 24 h; stronger effect = lower value; DMSO median 0, no signal -100. GFP signal change (wild-type ribosome), % (test concentration not listed). 350,000 compounds, 1.6% hits;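 active means significant combined selectivity score with lowered wild-type GFP, culture density cut under 30%, mutant RFP and density less affected; inactive means any of these conditions unmet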; further: one replicate is shown; some compounds called inactive have numbers as strong as hits
FGF22 binding – binders of human FGF22 protein, primary screen, FGF22 synaptogenesis inhibitor project, biophysical, thermal shift, single point; Fibroblast growth factor 22 (Homo sapiens), Q9HCT0; recombinant FGF22 thermal shift, SYPRO orange fluorescence; percent of sucrose octasulfate shift, DMSO zero; calls only at 9.99 µM; 340,000 compounds, 1.5% hits; AID 651658, 2012;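 active means melting point raised past a set limit in the mean and every replicate; inconclusive means no clear call; three in four hits are not shown here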
Target sequence (Q9HCT0 whole entry, looked up): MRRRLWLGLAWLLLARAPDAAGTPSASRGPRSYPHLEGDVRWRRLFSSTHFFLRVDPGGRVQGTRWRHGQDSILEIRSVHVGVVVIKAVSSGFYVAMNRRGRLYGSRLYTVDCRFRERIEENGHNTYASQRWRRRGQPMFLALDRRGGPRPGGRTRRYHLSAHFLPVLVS
Calb FLC – C. albicans growth inhibition with fluconazole, primary screen, CaCi-2 strain, Alamar Blue fluorescence; AID 1979, 2009; 300,000 compounds, 0.57% hits; growth inhibition, % (concentration not given with the values); C. albicans CaCi-2 (fluconazole-resistant clinical isolate) + fluconazole, 48 h;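 active means most replicates above 75%; inconclusive means exactly half above 75%; inactive means most below 75%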;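 further: all wells also contain fluconazole at 8 µg/ml as a sub-toxic cotreatment; 0% = median of DMSO wells and 100% = median of geldanamycin control wells; wells of about 8 µL received 7.5 nL stock; the first replicate is given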
Beta apoptosis – inhibitors of cytokine-induced beta cell apoptosis, primary screen, luminescence; 300,000 compounds, 0.8% hits; protection from apoptosis, % (concentration not given with the values); INS-1E cytokine-induced death, ATP luminescence, 48 h; percent of positive-control rescue, neutral wells zero;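 active means all replicates at 75% or more, or half of them and the mean; inconclusive means half reach 75% but not the mean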;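 further: 0% = cytokine-treated negative control wells and 100% = positive control rescue; higher means more ATP so stronger rescue from cytokine killing; wells of about 40 µL received 100 nL stock; the first replicate is given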
RanGTP-Impb inh – inhibitors of RanGTP-importin-beta interaction, primary screen, biochemical, FRET, CFP-Ran, YFP-importin-beta, homogeneous; Ran GTPase (GTP-bound) - importin-beta complex; 300,000 compounds, 1.1% hits; cell-free CFP-Ran/YFP-importin-beta FRET ratio; inhibition, % (concentration not given with the values);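 active means most replicates above 15%; inconclusive means exactly half above 15%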;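 further: 0% = DMSO wells and 100% = Ran loaded with GDP instead of GTP; wells of about 40 µL received 100 nL stock; the first replicate is given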
T cruzi repl – inhibitors of intracellular T. cruzi growth, primary screen, luminescence, NIH3T3 host cells. T. cruzi beta-gal in NIH3T3, 90 h. inhibition, % (concentration not given with the values). 300,000 compounds, 1.4% hits. AID 1885, 2009;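 active means mean inhibition across valid replicates above about 55%, limit read from the data; inconclusive means mean below that limit but half or more replicates reach it; inactive means mean below it, under half of replicates reach it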;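 further: signal also drops with host cell toxicity which is not excluded here; 0% = plate median of DMSO wells and 100% = zero luminescence signal; higher percent means less beta-gal luminescence so fewer parasites; stock transfer was 50 nL into about 50 µL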
AF4-AF9 inh – inhibitors of AF4 peptide binding to AF9, primary screen, biochemical, AlphaScreen, biotin-AF4 peptide, FLAG-AF9, single point; Protein AF-9 (Homo sapiens), P42568; inhibition, % at 10 µM; 350,000 compounds, 0.47% hits; AID 651704, 2012;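 active means every replicate reaching a set inhibition limit, whatever the replicate mean, cut at about 25% in these data; inconclusive means mean inhibition reaches that limit but some replicates miss it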;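 further: 0% = plate neutral control median and 100% = total signal loss; the record names both 10 and 1 µM as test concentration; the first replicate is given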
Target sequence (P42568 whole entry, looked up): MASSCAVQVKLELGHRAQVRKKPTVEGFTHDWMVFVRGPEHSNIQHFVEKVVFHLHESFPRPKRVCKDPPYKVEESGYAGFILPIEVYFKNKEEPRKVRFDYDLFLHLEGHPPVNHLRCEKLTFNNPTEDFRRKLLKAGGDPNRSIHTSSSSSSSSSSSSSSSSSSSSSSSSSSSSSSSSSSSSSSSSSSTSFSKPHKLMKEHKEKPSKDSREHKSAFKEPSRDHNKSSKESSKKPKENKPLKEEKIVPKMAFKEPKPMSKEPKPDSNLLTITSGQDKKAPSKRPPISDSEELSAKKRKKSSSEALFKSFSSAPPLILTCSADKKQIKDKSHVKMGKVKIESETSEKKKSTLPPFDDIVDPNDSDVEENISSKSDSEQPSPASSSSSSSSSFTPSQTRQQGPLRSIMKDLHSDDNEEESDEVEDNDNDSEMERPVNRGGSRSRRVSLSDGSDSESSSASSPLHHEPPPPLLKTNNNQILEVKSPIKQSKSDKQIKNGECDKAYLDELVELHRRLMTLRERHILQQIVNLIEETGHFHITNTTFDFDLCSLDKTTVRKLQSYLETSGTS
rRNA inh HTS OD600 – recorded beside rRNA inh HTS, whose call it bears; OD600 change, %; measured here: OD600 growth;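 optical density of the mix in the first replicate; 0 = DMSO median and -100 = no signal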
rRNA inh HTS RFP – second read-out of rRNA inh HTS, no call of its own (marks repeat the call); RFP signal change, %; measured here: RFP humanized mutant strains;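 first replicate; 0 = DMSO median and -100 = no signal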
Active calls of the source: *; i = inactive; ? = inconclusive; . = not tested or not shown.

SMILES	ALR inh	rRNA inh HTS	rRNA inh HTS OD600	rRNA inh HTS RFP	FGF22 binding	Calb FLC	Beta apoptosis	RanGTP-Impb inh	T cruzi repl	AF4-AF9 inh
CCOC(=O)C1CCN(S(=O)(=O)c2ccc(-c3ccc(=O)[nH]n3)o2)CC1	0	21	17	1.5	i	2	-1	0.1	-13	-3.2
CCCCN(CCCC)c1nc2ccccc2nc1C(C#N)C(=O)NCCCOC (stereo not drawn)	3	.	.	.	.	-1	1	32*	-3	.
COc1cnc(SCc2ccc(Cl)c(Cl)c2)nc1Cl	58	-57	-78	-31	i	26	1	1.9	-25	-44
CCOC(=O)/C=C/C(=O)Nc1ccc(S(=O)(=O)Nc2nccs2)cc1	43	4	0	1.6	i	.	-5	-3.5	-5	-4.1
COc1ccc(OC)c(/C=N/NC(=O)c2cnccn2)c1	1	16	3	-0.2	i	-1	-32	6.1	-2	.
CCOc1ccc(C(=O)Nc2nnc(C3=COCCO3)o2)cc1	4	-49	-70	-13	i	-3	2	0.9	-24	-2.4
N#CC(C#N)=C(N)Nc1cccc(Cl)c1	-5	21	16	2.3	i	1	-1	6.1	-9	.
Cc1oc(-c2ccc(-c3ccccc3)cc2)nc1CN(C)C1CCOC1 (stereo not drawn)	.	-23*	-12*	0.2*	i	-4	5	-1.4	9	12
COCCCn1c(SCC(=O)NC(C)(C)C)nnc1-c1ccccc1	-11	.	.	.	.	-7	-1	1.9	-5	.
COCCNC(=O)Cc1c(C)c2c(cc(C)c3c(C)coc32)oc1=O	-3	2	7	2.1	i	-14	3	-2.1	11	-1.0
O=C(/C=C/c1ccccc1)NNC(=O)C1CC1	-3	9	13	-5.9	i	5	-7	3.3	-5	8.1
CCN(C[C@H]1N[C@@](CC)(C(=O)OC)[C@H]2C(=O)N(C)C(=O)[C@@H]12)C(=O)Nc1ccc(C(F)(F)F)cc1	.	-24*	-9.3*	8.3*	i	.	-6	.	.	-10
CC(NC(=O)c1ccccc1)c1nnc(SCC(=O)NC2=NCCS2)n1C (stereo not drawn)	-2	3	7	-4.5	i	4	-3	1.3	2	-2.1
CC(C)CC(=O)OCc1cn(-c2ccccc2)nn1	.	.	.	.	.	15	-3	-1.3	-15	.
COc1ccc(S(=O)(=O)NC2CCCC2)cc1C(N)=O	-8	5	8	-0.5	i	-8	-8	-2.5	-3	-1.9
O=C(NCCN1CCOCC1)c1ccc(-c2ccccc2)cc1	21	1	1	-2.7	i	-8	0	-1.7	-14	5.0
COc1ccc2[nH]c(C)c(CCNC(=S)Nc3cc(C)cc(C)c3)c2c1	-2	-3	-3	17	i	-11	.	-7.0	-2	3.7
COc1ccc(-c2noc3c2-c2nc(C4CCCCC4)sc2CC3)cc1	3	7	-4	-0.1	i	13	2	2.8	-16	-1.0
CN(CCc1ccccc1)C(=O)c1cc(COc2ccc(F)cc2Cl)on1	-23	-28	-52	-7.9	i	-2	.	-1.6	11	-2.6
Cc1ccc(C(=O)COC(=O)CCC(=O)Nc2cc(Cl)ccc2Cl)cc1[N+](=O)[O-]	-27	.	.	.	.	9	.	5.2	-15	.
CCN(C[C@H]1N[C@@](C)(C(=O)OC)[C@H]2C(=O)N(C)C(=O)[C@@H]12)C(=O)c1ccc(C)cc1	1	5	-3	2.7	i	.	3	.	.	0.3
Cc1ccc(CN2CCC(Oc3ccc(C(=O)NCc4ccccn4)cc3)CC2)o1	0	13	11	4.4	i	.	-9	.	-18	0.5
COc1cc(OC)c(C2=NOC(C(=O)Nc3c(C)n(C)n(-c4ccccc4)c3=O)C2)cc1Cl (stereo not drawn)	.	13	4	0.3	i	16	-3	3.4	2	-0.7
Cc1c(NC(=O)CSc2nnc(COc3ccccc3)n2-c2ccccc2)c(=O)n(-c2ccccc2)n1C	-5	-5	-1	-5.1	.	2	3	1.4	-2	.
Cc1nc2c3ccccc3nc(SCC(=O)N3CC(C)CC(C)C3)n2n1 (stereo not drawn)	6	.	.	.	.	-7	1	3.2	2	.

The closing 5 compounds of the section above open the next one:
SMILES	ALR inh	rRNA inh HTS	rRNA inh HTS OD600	rRNA inh HTS RFP	FGF22 binding	Calb FLC	Beta apoptosis	RanGTP-Impb inh	T cruzi repl	AF4-AF9 inh
CCN(C[C@H]1N[C@@](C)(C(=O)OC)[C@H]2C(=O)N(C)C(=O)[C@@H]12)C(=O)c1ccc(C)cc1	1	5	-3	2.7	i	.	3	.	.	0.3
Cc1ccc(CN2CCC(Oc3ccc(C(=O)NCc4ccccn4)cc3)CC2)o1	0	13	11	4.4	i	.	-9	.	-18	0.5
COc1cc(OC)c(C2=NOC(C(=O)Nc3c(C)n(C)n(-c4ccccc4)c3=O)C2)cc1Cl (stereo not drawn)	.	13	4	0.3	i	16	-3	3.4	2	-0.7
Cc1c(NC(=O)CSc2nnc(COc3ccccc3)n2-c2ccccc2)c(=O)n(-c2ccccc2)n1C	-5	-5	-1	-5.1	.	2	3	1.4	-2	.
Cc1nc2c3ccccc3nc(SCC(=O)N3CC(C)CC(C)C3)n2n1 (stereo not drawn)	6	.	.	.	.	-7	1	3.2	2	.
COc1cc(NC(=O)C2CCCCC2)c(OC)cc1NC(=O)CN1CCCCC1	-21	.	.	.	.	12	-1	?	8	.
Cc1ccc(OCc2nnc(SCC(=O)Nc3ccc4c(c3)OCCO4)n2Cc2ccco2)cc1	.	.	.	.	.	-5	2	-1.8	-21	.
COc1cc(C(=O)OCn2nnc3ccccc3c2=O)cc(OC)c1OC	-5	.	.	.	.	5	-2	-2.8	-8	.
S=C(Nc1ccc(Cc2ccncc2)cc1)Nc1cccc(Cl)c1	.	8	0	5.0	i	2	-5	-1.1	9	7.8
O=C(COC(=O)c1ccccc1[N+](=O)[O-])NCCCc1ccccc1	-9	-1	-3	0.8	i	-19	-1	-1.0	3	-7.0
CCn1cc(C(=O)Nc2ccc(F)c(F)c2)cn1	-2	.	.	.	.	3	-8	1.2	-3	.
CC1Oc2cc3oc4c(O)c(O)ccc4c(=O)c3c(O)c2C1(C)C (stereo not drawn)	98*	.	.	.	.	97*	-1	-2.7	-6	.
CCCCn1c(SCC(N)=O)nc2c(sc3ccccc32)c1=O	-3	.	.	.	.	-4	4	-4.2	-9	.
COC(=O)c1sc2ccccc2c1-n1cccc1C(=O)C(=O)Nc1ccc(F)cc1	.	.	.	.	.	6	0	0.4	5	.
CCc1c(C)nc(SC(C(=O)O)c2ccccc2)c(C#N)c1C (stereo not drawn)	3	.	.	.	.	-11	-2	0.9	8	.
N#Cc1nc(COc2ccccc2)oc1N1CCN(Cc2ccccc2)CC1	1	.	.	.	.	6	1	2.3	41	.
COc1ccc(C(=O)CCC(=O)Nc2ccc(N3CCCCC3)cc2)cc1OC	67	-9	-9	2.9	i	6	1	3.3	22	3.3
CCOCCCNC(=O)Cc1cc(=O)[nH]c(=O)[nH]1	72	8	15	-1.7	i	7	-6	-3.8	-10	7.4
Cc1cccc(NC(=O)[C@@H]2CCCN2C2=NS(=O)(=O)c3ccccc32)c1C	.	6	8	-4.4	i	.	-3	.	.	-1.1
O=C(Nc1ccc(N2CCCC2)cc1)c1cccc(Cl)c1Cl	-9	1	4	1.3	i	-9	13	-6.2	7	1.3
COc1ccc(S(=O)(=O)N2CCC(C(=O)N3CCN(C)CC3)CC2)cc1Cl	-6	-25	-32	-5.8	i	5	-3	3.7	9	1.3
Cc1cc(Br)ccc1NC(=O)C1C2CCC(O2)C1C(=O)O (stereo not drawn)	-2	-2	0	-2.6	i	-2	10	0.3	-12	-0.9
Cc1c(NC(=O)Nc2ccc3c(c2)OCO3)cccc1[N+](=O)[O-]	-7	17	19	5.7	i	-17	3	4.4	10	-1.0
CC1(C)Cc2c(sc3c2c(=N)n(Cc2ccco2)c(=O)n3CC(=O)Nc2ccc(Cl)cc2)CO1	0	.	.	.	.	1	-4	-0.1	20	.
O=C(c1cccs1)N1CCCC1	-2	.	.	.	.	-3	-6	3.8	1	.
O=C1[C@H]2[C@H](ON3CCCC[C@H]23)C(=O)N1c1cccc(C(F)(F)F)c1	-4	13	3	2.2	i	1	-2	-1.5	2	-1.2
CC(C)(C)C(=O)Nc1c(Br)c(C2CC2)nn1-c1ccccc1	-10	3	5	-1.1	i	-6	-3	5.5	-9	-3.0
CN(c1ccccc1C(=O)O)S(C)(=O)=O	-28	.	.	.	.	-15	-2	5.5	-16	.
Cc1cc(C)n(-c2ccc(F)cc2CN2CCN(C3CCCC3)C(CCO)C2)n1 (stereo not drawn)	-13	5	7	-2.8	i	-5	-4	2.1	-11	2.7
O=C(Nc1cc(SCC(O)CO)cc([N+](=O)[O-])c1)c1ccc(-n2cnnn2)cc1 (stereo not drawn)	-1	17	17	-2.9	i	-12	-7	-2.9	3	-0.7

Next part (2 carried over from the part before).
SMILES	ALR inh	rRNA inh HTS	rRNA inh HTS OD600	rRNA inh HTS RFP	FGF22 binding	Calb FLC	Beta apoptosis	RanGTP-Impb inh	T cruzi repl	AF4-AF9 inh
Cc1cc(C)n(-c2ccc(F)cc2CN2CCN(C3CCCC3)C(CCO)C2)n1 (stereo not drawn)	-13	5	7	-2.8	i	-5	-4	2.1	-11	2.7
O=C(Nc1cc(SCC(O)CO)cc([N+](=O)[O-])c1)c1ccc(-n2cnnn2)cc1 (stereo not drawn)	-1	17	17	-2.9	i	-12	-7	-2.9	3	-0.7
CC1CCCN(C(=O)CN2C(=O)c3ccccc3S2(=O)=O)C1 (stereo not drawn)	-1	8	8	-1.3	i	.	5	.	.	3.0
CCSc1nc2c(cnn2-c2ccccc2)c(=O)n1N	-3	-17*	2.4*	-0.2*	i	-4	-4	0.2	-9	.
COc1ccc(Cn2nnnc2C(c2cc3ccc(OC)cc3[nH]c2=O)N2CCC(C)CC2)cc1 (stereo not drawn)	-1	.	.	.	.	-2	0	6.5	10	.
Cn1cc(CN2CCC(n3nccc3NC(=O)CCc3ccccc3)CC2)cn1	-5	14	2	5.4	i	-22	-2	2.9	3	0.4
COCCNC(=O)c1ccc(C2SCC(=O)N2CCc2ccccc2)cc1 (stereo not drawn)	47	0	5	-2.4	i	7	0	2.0	13	1.8
CCn1c2ccccc2c2cc(NS(=O)(=O)c3ccc(C)cc3)ccc21	.	.	.	.	.	-2	-1	5.0	25	.
Cc1ccc2nc3c(cc2c1)c(NC(=O)C1CCCO1)nn3CC(C)C (stereo not drawn)	.	.	.	.	.	5	-13	71*	8	.

From PubChem BioAssay

Not all compounds are listed; the hit share may differ from the screen's.
